Assay outcomes deposited in PubChem BioAssay by National Center for Advancing Translational Sciences (NCATS).
HPGD inh: qHTS Assay for Inhibitors of HPGD (15-Hydroxyprostaglandin Dehydrogenase) | 15-hydroxyprostaglandin dehydrogenase [NAD(+)] (Homo sapiens), P15428 | purified HPGD, NADH fluorescence kinetic, PGE2 substrate | Potency, µM, for the others: at the top dose activity change, negative = inhibition, actives largely listed as inhibitors | actives 4.3% (n = 150,000) | AID 894, 2007; active = well fitted inhibition curve with a large enough effect (not every such curve was filed as active); inconclusive = small, poorly fitted or top-dose-only effect, or another doubt; inactive = no such curve, though single readings can be large or run the other way;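 also: top concentration of the series not given in the record; plate controls included wells without enzyme; inactives centre near -10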
Target sequence (P15428 whole entry, looked up): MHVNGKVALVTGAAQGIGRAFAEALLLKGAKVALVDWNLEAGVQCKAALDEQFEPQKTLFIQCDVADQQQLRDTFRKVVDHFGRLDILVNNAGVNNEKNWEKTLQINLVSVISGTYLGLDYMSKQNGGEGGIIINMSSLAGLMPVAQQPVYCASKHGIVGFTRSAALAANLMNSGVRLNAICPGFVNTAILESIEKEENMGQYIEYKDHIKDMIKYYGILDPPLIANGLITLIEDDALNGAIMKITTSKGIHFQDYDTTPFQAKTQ
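20 nM HPGD preincubated 15 min at room temperature with compound in 50 mM Tris-HCl pH 8, 0.01% Tween 20. Started with 1 mM NAD+ and 30 uM prostaglandin E2; NADH fluorescence (360/450 nm) read 5 times over 30-s intervals, last minus first.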
Numbers without * were called inactive; u = inconclusive. % is scaled to controls: 0 for no effect and ±100 for the full control effect; potency is read from the fitted curve at half-maximal effect. These rows are one share of the data; rates above refer to the full screens.

HPGD inh | mol
-4% | CCOC(=O)CN1C(=O)N[C@@H](c2ccccc2)[C@@H](C(=O)OC)[C@H]1C
-16% | COc1cccc(-c2nccc(-n3ccnc3)n2)c1
-6% | Cc1c(C(=O)NCc2cccs2)oc2ccc(S(=O)(=O)N3CCOCC3)cc12
-4% | CN(C(=O)CSc1nnc2ccccn12)c1c(N)n(Cc2ccccc2)c(=O)[nH]c1=O
u | N#Cc1c(NC(=O)CSc2nc3c(c(C(F)(F)F)n2)CCc2ccccc2-3)sc2c1CCCC2
3% | COc1ccc(CNC(=O)C2CCN(S(=O)(=O)c3cccc4cccnc34)CC2)cc1
-11% | O=C(Cn1ncc2c1-c1ccccc1OC2)Nc1ccc(Cl)cn1
-7% | Brc1cc2c(cc1/C=N/Nc1nc(N3CCCC3)nc(N3CCOCC3)n1)OCO2
-9% | N#CCCCS(=O)(=O)c1nnnn1C1CCCCC1
-1% | COc1ccccc1NS(=O)(=O)c1ccc(C(=O)OCC(=O)NCc2ccco2)cc1
-18% | O=C(CNS(=O)(=O)c1cccc2nsnc12)NCc1ccc(Cl)cc1
u | NC(=O)c1c(Nc2nc3c(F)cccc3s2)sc2c1CCCC2
-16% | O=S(=O)(NC1CCCC1)c1ccc(S(=O)(=O)N(Cc2cccs2)CC2CCCO2)cc1 (stereo unspecified)
u | COC(=O)c1cc(NC(=O)N2c3ccccc3Sc3ccccc32)cc(C(=O)OC)c1
-5% | CCOC(=O)N1CCN(C(=O)CN(c2cc(Cl)ccc2OC)S(=O)(=O)c2ccccc2)CC1
-15% | Cc1ccc(SCC(=O)Nc2cccc(-c3nnc(-c4ccco4)o3)c2)cc1
-20% | CS(=O)(=O)N1CCC2(CCN(c3ccccn3)CC2)CC1
-14% | COc1cccc(C(=O)N(CN2CCCC2=O)c2cccc(Cl)c2)c1OC
-6% | CCc1cccc(OCCN2CCCC2)c1
-4% | Cc1cc(C(=O)Nc2sc(C)c(C)c2C#N)no1

Four of these compounds, reformatted.
> N#CCCCS(=O)(=O)c1nnnn1C1CCCCC1
  HPGD inh = -9%

> Cc1ccc(SCC(=O)Nc2cccc(-c3nnc(-c4ccco4)o3)c2)cc1
  HPGD inh = -15%

> O=C(CNS(=O)(=O)c1cccc2nsnc12)NCc1ccc(Cl)cc1
  HPGD inh = -18%

> COc1cccc(C(=O)N(CN2CCCC2=O)c2cccc(Cl)c2)c1OC
  HPGD inh = -14%

(continued)
HPGD inh | mol
-14% | COc1ccccc1N(CC(O)COc1ccccc1C)S(=O)(=O)c1ccccc1 (stereo unspecified)
-22% | COc1ccc(-n2c(C)cc(C(=O)CN3C(=O)NC4(CCCc5sccc54)C3=O)c2C)cc1 (stereo unspecified)
-24% | Cc1ccc(C(C[N+](=O)[O-])c2c(-c3ccccc3O)[nH][nH]c2=O)cc1 (stereo unspecified)
25µM* | CCN(CC)C(=O)CCCOc1ccc(Cl)cc1Cl
-5% | O=P(O)(COc1ccccc1)COc1ccccc1
1% | CC1CC(C)CN(C(=O)c2cccc(S(=O)(=O)Nc3cc(C(F)(F)F)ccc3Cl)c2)C1 (stereo unspecified)
-23% | N#C/C(=C\Nc1ccccc1SC(F)(F)F)c1nc(-c2ccc(Cl)cc2)cs1
-16% | Cc1cc2ccccc2c(=O)n1CC(=O)N1CCN(c2cccc(Cl)c2)CC1
-30% | O=C(NC(=S)NCC1CCCO1)c1ccccc1 (stereo unspecified)
-19% | C=CCn1c(NC(C)c2cc(Cl)ccc2O)nc2ccccc21 (stereo unspecified)
-13% | CC(C)(Oc1ccc(Cl)cc1)C(=O)NCCN1C(=O)S/C(=C/c2cccnc2)C1=O
-10% | Cc1ccc(S(=O)(=O)N(CC(=O)N2CCCCCC2)c2ccccc2)cc1
u | O=C(CN1CCC(c2nc3ccccc3s2)CC1)NCc1cccs1
u | COc1cc(NS(C)(=O)=O)ccc1Nc1c2ccccc2nc2ccccc12
-10% | Cc1[nH]c2ccccc2c1C(=O)CSc1ccccc1
u | Cc1cccn2c(=O)c3cc(C(=O)NCc4ccco4)c(=N)n(C(C)C)c3nc12
-6% | CCC(C)NC(=O)NC1C(NC(=O)NC(C)CC)N(C)C(=O)N1C (stereo unspecified)
-9% | COc1cc(C2C(C#N)=C(N)OC3=C2C(=O)CCC3)ccc1OC(=O)N1CCOCC1 (stereo unspecified)
u | Cc1nc(NC2CCCCC2)c2nc(-c3ccccc3)n(CCN(C)C)c2n1
7.9µM* | CC1(C)CC(=O)C(C(C#Cc2ccccc2)C2=C(O)CC(C)(C)CC2=O)=C(O)C1
-18% | Cc1cc(C(=O)COC(=O)c2ccc3c(c2)OCO3)c(C)n1Cc1cccs1
0.56µM* | Cc1ccc(C)c(Cn2nnc3c(=O)[nH]c(C4CCN(C(=O)c5cccs5)CC4)nc32)c1
7.9µM* | CC(C)OCCCNC(=S)Nc1ccc(S(N)(=O)=O)cc1
-11% | CCOc1ccc(N(CC)C(=O)COc2cc(=O)n(CC)c3ccccc23)cc1
-12% | CCOc1ccccc1C(=O)n1nc(C)cc1C
-5% | CC(CCc1ccccc1)NC(=O)c1ccncc1 (stereo unspecified)
-25% | COc1cccc(C(=O)N/N=C/C(Br)=C/c2ccccc2)c1
-23% | Oc1[nH]c2ccccc2c1C=Nc1ccc2c(c1)OCO2
-6% | CCOCCCNC(=O)N1CCOCC1
-14% | Oc1cc(O)c2c(c1)O[C@@H](c1ccc(O)c(O)c1)[C@H](O[C@@]1(c3cc(O)c(O)c(O)c3)Oc3cc(O)cc(O)c3[C@H](O)[C@@H]1O)C2
-7% | C=C1C[C@]23C[C@@]1(O)CC[C@H]2[C@@]12C=C[C@H](O)[C@@](C)(C(=O)O1)[C@H]2[C@@H]3C(=O)O
-10% | CCc1ccc(-c2c(C)sc(NC(=O)C3CCC3)c2C#N)cc1
-3% | COc1cccc2c(O)cc(=O)n(C)c12
-4% | O=C(Cc1ccccc1)NC1CCS(=O)(=O)C1 (stereo unspecified)
-6% | Cc1cccc(NC(=O)CCCN2C(=O)c3ccccc3C2=O)n1
-3% | Brc1ccc2c(c1)OCCOCCOCCOCCOCCOCCO2
u | COc1cc(OC)c2cc(-c3ccncc3)cnc2c1
-15% | Cn1c(=O)c2c(nc(NCc3ccc4c(c3)OCO4)n2Cc2ccc(F)cc2)n(C)c1=O
-5% | Cc1nc(S(=O)(=O)c2ccc(Cl)cc2)c(NCc2ccccc2)o1
-9% | CCCn1c(SCC(=O)c2c[nH]c3ccccc23)nnc1-c1ccncc1
2% | COc1ccc(NS(=O)(=O)c2ccc(OCC(=O)N3CCOCC3)cc2)cc1
-15% | Fc1cccc(Cn2cc(C(=S)N3CCCCC3)c3ccccc32)c1
-27% | Cn1c(NCc2ccccc2)nc2c1c(=O)n(Cc1ccccc1)c(=O)n2C
-15% | COC(=O)c1nn(-c2ccccc2)c2nnc(Cc3ccc(C)cc3)c(=O)n12
-12% | Cc1ccnc(NC(=O)COc2ccc3oc4c(c3c2)CCCC4)c1
-1% | CC(C)C(=O)NS(=O)(=O)c1ccc(N)cc1
-13% | CCN(CC)S(=O)(=O)c1ccc(N2CCCC2)c(NS(=O)(=O)c2ccccc2)c1
-6% | COc1cccc(-c2nnc(SCC(=O)Nc3cc(C)on3)n2C)c1
-6% | O=C(Nc1cccc(C(F)(F)F)c1)NC1CCN(S(=O)(=O)c2ccc(F)cc2)CC1
u | O=C1C2C3C=CC(C4CC34)C2C(=O)N1/N=C/c1ccc(-c2ccccc2[N+](=O)[O-])o1 (stereo unspecified)
u | COc1ccc(Cc2nnc(-c3ccc(F)cc3)o2)cc1OC
-17% | Cn1c(=O)c2c(SCC(=O)N3CCCc4ccccc43)nc(CC(C)(C)C)nc2n(C)c1=O
25µM* | COC(=O)c1ccc(C#CC(NP(=O)(c2ccccc2)c2ccccc2)c2ccccc2)cc1 (stereo unspecified)
-9% | CCSc1nc2ccccc2n1Cc1ccccc1F
-12% | N#C/C(=C\c1ccc(Cl)s1)C(=O)N1CCN(c2ccccc2)CC1
-4% | Cc1nc(CS(=O)c2ccc(Cl)cc2)cc(N2CCOCC2)n1 (stereo unspecified)
-11% | O=C(c1ccccc1)[C@H]1CC=CC[C@H]1C(=O)O
3% | N/C(=N\OC(=O)Cc1ccccc1)c1ccccn1
-6% | COC(=O)c1ccc(NC(=O)COc2ccccc2OC)cc1
-18% | COC(=O)c1ccc(CSc2nc3ccccc3s2)o1

(continued)
HPGD inh | mol
-14% | O=C(Nc1nnc(-c2ccccc2)s1)c1cccc(S(=O)(=O)N2CCOCC2)c1
-6% | O=C(OCC(=O)c1ccccc1Br)c1ccccn1
-5% | O=C(NCCCCCNC(=O)c1cccnc1)c1cccnc1
u | COCCN(CCOC)C(=O)c1cc2sc3ccccc3c2s1
22µM* | COc1cccc(-n2nnc3c(=O)n(CC(=O)N4CCCc5ccccc54)cnc32)c1
u | O=C(c1ccc2c(c1)OCO2)n1nnc2ccccc21
-3% | O=C(NCCCN1CCCCCC1)c1ccc2c(c1)NC(=O)C(N1CCOCC1)S2 (stereo unspecified)
-10% | O=C(COC(=O)c1cccc(S(=O)(=O)N2CCOCC2)c1)Nc1ncc(C(F)(F)F)cc1Cl
-1% | CN(C)C(CNC(=O)c1cccc(S(=O)(=O)N2CC3(C)CC2CC(C)(C)C3)c1)c1ccco1 (stereo unspecified)
4% | Nn1c(SCC(=O)N2CCCc3ccccc32)nnc1-c1ccccc1
-9% | CCOC(=O)c1sc(=S)n(-c2ccc(Cl)cc2)c1C
u | Nc1c(S(=O)(=O)c2cc(Cl)ccc2Cl)c2nc3ccccc3nc2n1CCN1CCOCC1
-13% | CC1(C)CCC=[N+]1[O-]
-4% | C/C(=C\c1ccccc1)CN1CCN(c2cccc(Cl)c2)CC1
5µM* | O=C(O)c1ccc(CSc2nnc(COc3ccc(Cl)cc3Cl)o2)cc1
-20% | Cc1ccc(C)c(NC(=O)CSc2nnc(-c3ccncc3)n2N)c1
-14% | Cc1nnc2c3ccccc3c(-c3cccc4ccccc34)nn12
-13% | Oc1ccc(Cl)cc1C(C#Cc1ccccc1)N1CCOCC1 (stereo unspecified)
-12% | Cc1ccc(O)c(C(=O)c2cnn(C(=O)Cc3csc(C)n3)c2)c1
-9% | CCOc1cc2c(cc1OCC)C(c1ccccc1OC)OC(=O)C2 (stereo unspecified)
-14% | CC1=C(C#N)C(=O)NC(C)(C)C1
-10% | COc1ccc(-c2cc(C(=O)NCc3ccco3)no2)cc1OC
4% | COc1ccccc1NC(=O)CC1C(=O)NCCN1C(=O)Nc1ccccc1 (stereo unspecified)
-6% | COc1cccc(C(N)CC(=O)O)c1 (stereo unspecified)
13µM* | CCn1c(-c2cc(C3CC3)nc3ccccc23)n[nH]c1=S
-10% | Cc1ccc(/C=C/C(=O)Nc2ccc(N(C)C)cc2)o1
-13% | Fc1ccc(NC(=S)N2N=CCC2c2ccccc2)cc1 (stereo unspecified)
-9% | COC(=O)CCCC(=O)N1CCOCCN(C(=O)CCCC(=O)OC)CCOCC1
28µM* | CCc1cc(=O)oc2cc(C)cc(O)c12
0% | Cc1cccc(C)c1NC(=O)C1c2ccccc2Oc2ccccc21
-13% | CC(=O)c1cc2c(cc1NC(=O)c1cnc(C)cn1)OCO2
1% | C/C(N)=C(/C#N)C(=O)CSc1nnc(COc2ccccc2Cl)o1
-7% | Cc1ccccc1Nc1nc(N)nc(CSCC(=O)Nc2cccc(Br)c2)n1
u | N#Cc1c(-c2cccs2)cc(-c2ccccn2)nc1N
-5% | COc1ccc(NC(=O)NC(C)c2ccncc2)cc1OC (stereo unspecified)
-8% | CCOc1ccc2nc3cc(N=Nc4ccc(N)nc4N)ccc3c(N)c2c1
-9% | CC(=O)Oc1ccc2oc(=O)c3c(c2c1)CCCN3C(=O)CN1CCN(c2ncccn2)CC1
-11% | NC(=O)C1CCN(C2CC(=O)N(c3ccc(F)c(Cl)c3)C2=O)CC1 (stereo unspecified)
-13% | Cc1cc(NCCCn2ccnc2)n2nc(C)c(-c3ccccc3)c2n1
-10% | O=C(Nc1ccc2c(c1)CCC2)c1ccc(F)c(S(=O)(=O)N2CCOCC2)c1

Entries listed above that bear a hit mark in HPGD inh:
HPGD inh | mol
25µM* | CCN(CC)C(=O)CCCOc1ccc(Cl)cc1Cl
7.9µM* | CC1(C)CC(=O)C(C(C#Cc2ccccc2)C2=C(O)CC(C)(C)CC2=O)=C(O)C1
0.56µM* | Cc1ccc(C)c(Cn2nnc3c(=O)[nH]c(C4CCN(C(=O)c5cccs5)CC4)nc32)c1
7.9µM* | CC(C)OCCCNC(=S)Nc1ccc(S(N)(=O)=O)cc1
25µM* | COC(=O)c1ccc(C#CC(NP(=O)(c2ccccc2)c2ccccc2)c2ccccc2)cc1 (stereo unspecified)
22µM* | COc1cccc(-n2nnc3c(=O)n(CC(=O)N4CCCc5ccccc54)cnc32)c1
5µM* | O=C(O)c1ccc(CSc2nnc(COc3ccc(Cl)cc3Cl)o2)cc1
13µM* | CCn1c(-c2cc(C3CC3)nc3ccccc23)n[nH]c1=S
28µM* | CCc1cc(=O)oc2cc(C)cc(O)c12

(list continues)
HPGD inh | mol
-4% | O=C(NCc1ccco1)C(c1ccccc1)N(C(=O)Cc1cccs1)c1ccccc1 (stereo unspecified)
-5% | COC(=O)c1ccc(NC(=O)C(=O)N2CCN(C(=S)NCCc3ccccc3)CC2)cc1
-6% | CCCOc1cccc(C2C(C(=O)c3ccco3)=C(O)C(=O)N2CCN(CC)CC)c1 (stereo unspecified)
-12% | COc1ccc(/C=N/Nc2nc(=O)[nH]nc2C)cc1[N+](=O)[O-]
